# SARS PLpro yeast: blocks SARS-CoV papain-like protease in a yeast assay | S. cerevisiae expressing SARS-CoV PLpro, growth rescue; control for the full effect not named in the record | Potency, µM (doses to about 32.9 µM), without a hit: at the top dose activity, positive = growth rescue | AID 485353 | 330,000 compounds, 0.19% hits; further: 0% is about no effect; nearly all actives have a fitted effect of over 55% in size; growth read by luminescence after 48 h
# Marburg entry inh: inhibitors of Marburg virus binding or cell entry. Marburg virus pseudotyped entry inhibition, cell reporter; control for the full effect not named in the record; about a third of the inactives were read at about 46 µM. Potency, µM (top dose mostly 37.8 µM), for inactives: at the top dose activity change, negative = inhibition, actives largely listed as inhibitors. 300,000 compounds, 1.8% hits; active = well fitted inhibition curve with a large enough effect; inconclusive = small, poorly fitted or top-dose-only effect, or effect the other way; inactive = flat fitted curve, though single readings scatter; tested in HEK293 cells; about a fifth of its hits are not listed in these tables; further: on the % scale 0 is the no-effect control and ±100 the full control effect; luciferase read-out
# RE007 growth inh: less growth of the S. pombe RE007 Vpr strain; S. pombe RE007 Vpr strain, BacTiter-Glo ATP luminescence, 24 h; control for the full effect not named in the record; Potency, µM (doses to about 92.2 µM), for inactives: top-dose activity change, negative = less growth; 360,000 compounds, 0.21% hits; active = well fitted falling curve with a large enough effect; inconclusive = small, poorly fitted or top-dose-only effect; inactive = no such curve, though single readings can be large or run the other way;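 further: on the % scale 0 is the no-effect control and ±100 the full control effect; nearly all actives have a fitted effect of over 50% in size; the assay follows cell death caused by Vpr and the record does not say whether a fall means rescue or toxicity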
#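 Fission yeast strain RE007, carrying one chromosomally integrated HIV-1 vpr copy, was seeded at OD 0.01 in PMG+AL medium with 23 nL pinned compound. After 24 h at 30 °C and 99% humidity, viability was read by BacTiter-Glo luminescence.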
# Cruzain noTriton: blocks cruzain activity in detergent-free assay | P25779 | purified cruzain, Z-FR-AMC fluorescence, no detergent | Potency, µM, for the others: max response, negative = inhibition, most hits filed as inhibitors | 200,000 compounds, 2.3% hits | AID 1476; active means well fitted curve in the direction sought with a large enough effect; inconclusive means small, poorly fitted or top-dose-only effect, or another doubt; inactive means no such curve, though single readings can be large; an effect the other way counts as inactive or inconclusive;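 further: plate controls were enzyme without inhibitor for no effect and buffer without enzyme for full effect; nearly all actives have a fitted effect of over 40% in size; top concentration of the series not given in the record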
# Target sequence (P25779 123-467 limits assumed): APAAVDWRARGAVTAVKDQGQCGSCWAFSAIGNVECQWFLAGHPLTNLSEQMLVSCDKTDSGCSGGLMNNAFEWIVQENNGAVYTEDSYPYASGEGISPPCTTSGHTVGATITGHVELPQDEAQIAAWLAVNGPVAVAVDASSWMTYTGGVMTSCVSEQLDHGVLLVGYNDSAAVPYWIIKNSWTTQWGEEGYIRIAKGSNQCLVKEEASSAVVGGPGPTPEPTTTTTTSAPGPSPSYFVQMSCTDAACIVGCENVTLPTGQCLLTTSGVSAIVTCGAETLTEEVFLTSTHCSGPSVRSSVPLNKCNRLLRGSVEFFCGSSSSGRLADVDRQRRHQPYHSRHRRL
#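 Purified cruzain at 1.5 nM, pre-incubated 15 min with compound at room temperature in 100 mM sodium acetate pH 5.5, 5 mM DTT, 0.00005% Triton X-100. Reaction started with 2 uM Z-FR-AMC; AMC fluorescence increase over 60 s gives rate.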
# Cruzain Triton: blocks cruzain activity in presence of Triton detergent; Potency, µM, for the others: max response, negative = inhibition, most hits filed as inhibitors; AID 1478; P25779; purified cruzain, Z-FR-AMC fluorescence, 0.01% Triton; 200,000 compounds, 0.43% hits; active means well fitted curve in the direction sought with a large enough effect; inconclusive means small, poorly fitted or top-dose-only effect, or another doubt; inactive means no such curve, though single readings can be large; an effect the other way counts as inactive or inconclusive;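 further: plate controls were neutral wells for no effect and buffer without enzyme for full effect; nearly all actives have a fitted effect of over 40% in size; top concentration of the series not given in the record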
#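 Read-out: AMC fluorescence (360 nm excitation, 450 nm emission), four reads over 2 min, first-to-third difference used. Conditions: cruzain 1.5 nM, Z-FR-AMC 2 uM, pH 5.5 acetate, 5 mM DTT, 0.01% Triton X-100.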
# StopGo reporter: lowers the luciferase signal of an FMDV 2A StopGo reporter | human cells with a luciferase reporter of 2A StopGo recoding; control for the full effect not named in the record | Potency, µM (doses to about 57.9 µM), for inactives: at the top dose signal change, negative = less light | 410,000 compounds, 1.2% hits | AID 1159524; active = well fitted falling curve with a large enough effect; inconclusive = small, poorly fitted or top-dose-only effect; inactive = no such curve, though single readings can be large or run the other way; tested in HEK293T cells; further: on the % scale 0 is the no-effect control and ±100 the full control effect; nearly all actives have a fitted effect of over 45% in size; luciferase light after 4 h
# NS1 inh: blocks influenza NS1 protein function. Potency, µM (series often up to 46.1 µM), for the others: at the highest dose activity, positive = more growth. AID 2326. 270,000 compounds, 0.4% hits. S. cerevisiae slowed by influenza A NS1, growth recovery by OD600; further: actives are rising curves; nearly all actives have a fitted effect of over 50% in size
#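 OD600 was taken as the measure of yeast growth restored by compound in an NS1-expressing S. cerevisiae strain. Cells had been washed out of glucose medium and diluted 1:100 into galactose -URA medium, pH 6.0.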
# Lassa entry inh: Lassa virus entry inhibition; Lassa virus pseudotype entry inhibition, cell reporter; control for the full effect not named in the record; 300,000 compounds, 1.2% hits; Potency, µM (series often up to 37.9 µM), for the others: at the top dose activity change, negative = inhibition, hits mostly inhibitors; active means well fitted inhibition curve with a large enough effect; inconclusive means small, poorly fitted or top-dose-only effect, or effect the other way; inactive means flat fitted curve, though single readings scatter; tested in HEK293 cells; further: on the % scale 0 is the no-effect control and ±100 the full control effect; nearly all actives have a fitted effect of over 50% in size; luciferase read-out
# * marks the source's active call; other numbers are inactive results; ? = inconclusive; . = not tested or not shown; & = joins results of further samples; [ ] = dose if it differs, or a comment. Unless noted, the call rests on the fitted dose curve; in most records, active means well fitted rising curve with a large enough effect; inconclusive means small, poorly fitted or top-dose-only effect; inactive means no such curve, though single readings can be large or run the other way. Potency means the concentration at half of the fitted maximal effect.
SMILES,SARS PLpro yeast,Marburg entry inh,RE007 growth inh,Cruzain noTriton,Cruzain Triton,StopGo reporter,NS1 inh,Lassa entry inh
CC(C)C1Nc2ccc(C(=O)NC3CCCCC3)cc2NC1=O (stereo not drawn),2%,?,-6%,.,.,0%,10%,-3%
Cc1cc(C)cc(-n2cnc3cc(C(=O)O)ccc32)c1,-2%,-12%,18%,-7%,2.0%,17%,-16%,2%
CSc1nc(-c2ccco2)nn1C(=O)c1ccccc1,-2%,-1%,-2%,5%,1.3%,-19%,6%,0%
COc1ccc(N2C(=O)CSC23C(=O)N(CC(N)=O)c2ccccc23)cc1 (stereo not drawn),.,.,.,2%,-0.2%,-15%,.,25%[46.1 µM]
COc1cc(C=O)ccc1OC(=O)N1CCOCC1,1%,.,4%,.,.,-5%,5%,.
O=C(Nc1ccc2ccccc2c1)c1cn(-c2ccccc2)nc1-c1cccs1,-2%,?,14%,20µM*,-0.6%,0%,8%,?
CC1(C)Cc2cccc(OCC(=O)OCC(=O)Nc3cccc(S(N)(=O)=O)c3)c2O1,1%,.,-12%,.,.,-21%,12%,.
CCN(CC)c1ccc(/C=N/NC(=S)NCc2ccc(OC)cc2)cc1,17%,?,-1%,?,-0.3%,-6%,?,3.7µM*
Cc1ccc(S(=O)(=O)N2CCOCC2)cc1C(=O)Nc1nc2ccccc2[nH]1,8%,6%,-2%,3%,-7.0%,-7%,-2%,13%
COc1ccc(NC(=O)c2cc([N+](=O)[O-])ccc2O)cc1,-6%,.,6.3µM*,.,.,6.3µM*,-71%,.
O=C(NCCCN1CCCC1)[C@H](CSCc1ccccc1)N1Cc2ccccc2C1=O,1%,?,18%,.,.,-23%,1%,21%[46.1 µM]
CCOc1ccc(N(CC(=O)NC2CCCCC2C)S(=O)(=O)c2c(C)noc2C)cc1 (stereo not drawn),-3%,.,10%,.,.,8%,-4%,.

# Single values from the results shown:
# COc1ccc(NC(=O)c2cc([N+](=O)[O-])ccc2O)cc1 in SARS PLpro yeast shows -6%
# CCN(CC)c1ccc(/C=N/NC(=S)NCc2ccc(OC)cc2)cc1 in Cruzain Triton shows -0.3%

# More results follow:
SMILES,SARS PLpro yeast,Marburg entry inh,RE007 growth inh,Cruzain noTriton,Cruzain Triton,StopGo reporter,NS1 inh,Lassa entry inh
O=c1c2cc(-c3ccccc3)sc2ncn1/N=C/c1ccco1,-10%,?,-18%,-4%,-6.4%,80%[activator],-53%,?
Cc1[nH]c2ccccc2c1C(=O)CSc1nc2cc(S(=O)(=O)N3CCCCC3)ccc2o1,-5%,7.3µM*,6%,25µM*,0.7%,-27%,0%,?
COc1ccc(C(C(=O)NCC2CCCO2)N(Cc2cccs2)C(=O)c2snc(C(N)=O)c2N)cc1 (stereo not drawn),7%,3.2µM*,-8%,.,.,-10%,-5%,?
CC(C)(C)C(=O)/C(=C/c1ccc(Cl)cc1)n1cncn1,-4%,.,-20%,.,.,16µM*,-48%,.
CCCC(=O)C1=C(c2ccc(C)cc2)N(C(=O)CCC)n2cnnc2S1,.,.,.,7%,-12%,-21%,.,10%[46.1 µM]
CC1CCN(S(=O)(=O)c2ccc3c(c2)CC(C)N3C(=O)C2CCC2)CC1 (stereo not drawn),-7%,.,-1%,.,.,-25%,10%,.
O=C(Nc1ccnn1C1CCN(Cc2ccc(O)c(Cl)c2)CC1)C1CCCC1,2%,2%,-6%,.,.,0%,0%,-7%
O=C(Nc1ccc(Oc2cccnc2)cc1)C1CCN(Cc2cc(Cl)ccc2O)CC1,16%,.,-10%,.,.,7.9µM*,-9%,.
CC(c1ccco1)N(C(=O)c1ccc(C(F)(F)F)cc1)c1ccccn1 (stereo not drawn),0%,11%,-5%,.,.,34%[activator],.,?
CCSc1cc(N2CCCC2)nc(-c2ccccc2)n1,-7%,1%,-16%,3%,-5.9%,-15%,-1%,5%
Cc1ccc(C(c2ccc(C)o2)c2cccc([N+](=O)[O-])c2O)o1,-35%,-24%,1%,-2%,-7.3%,0%,-1%,3%
O=C(Nc1sc2c(c1C(=O)O)CCCCC2)c1ccccc1,-5%,7.1µM*,?,.,.,-19%,-47%,?
O=C(NCc1cccs1)c1ccccc1C(=O)NCc1cccs1,3%,2%,23%,-2%,5.0%,3%,?,-6%
COc1ccccc1-c1nnc(Nc2nc3c(OC)cccc3s2)o1,-27%,?,1%,32µM*,?,-12%,3%,?
O=C(Cn1cc(C(F)(F)F)cc(Cl)c1=O)Nc1cc(S(=O)(=O)N2CCOCC2)ccc1Cl,9%,?,8%,-1%,-3.9%,-17%,2%,14%
O=C(COC(=O)c1cc[n+]([O-])cc1)Nc1cccc(Br)c1,-3%,5%[46.1 µM],3%,.,.,-9%,.,22%
O=C(Nc1cccc(S(=O)(=O)N2CCOCC2)c1)C1=NN(c2ccccc2)C(=O)CC1,1%,.,-4%,.,.,-8%,-9%,.
CCOc1cc(C(=O)N2CCC3(CC2)NCCc2[nH]cnc23)cc(OCC)c1OCC,2%,.,-2%,.,.,-1%,-4%,.
CC(O)CNc1ccc(-c2nn(C)c(=O)c3ccccc23)cc1[N+](=O)[O-] (stereo not drawn),1%,3%[46.1 µM],3%,.,.,-8%,8%,20%
CCNc1ncnc2c1nnn2C,.,.,.,7%,-1.1%,4%,.,1%[46.1 µM]
Cc1cccc(N2CCN(CC(O)COc3ccccc3)CC2)c1 (stereo not drawn),.,?,5%,.,.,-27%,.,-18%
CC(CCCN(C)C)C(Cc1ccccc1)c1ccccc1 (stereo not drawn),.,?,4%,.,.,-17%,.,?
CN(C)C1N(C(=O)c2ccccc2)N=C2c3ccccc3S(=O)(=O)N21 (stereo not drawn),0%,13%[46.1 µM],9%,.,.,20%,3%,12%[46.1 µM]
CC(=O)Nc1ccc(S(=O)(=O)NC(CC(=O)N2CCC3(CC2)OCCO3)C(C)C)cc1 (stereo not drawn),5%,?,-18%,28%,6.5%,-3%,3%,-6%
Cc1ccc(S(=O)(=O)Oc2ccccc2/C=C2\SC(=O)NC2=O)cc1,-1%,-12%[46.1 µM],-7%,.,.,-25%,-1%,?
CC(=O)NCc1ccc2[nH]c(C)cc2c1,-2%,.,6%,-5%,4.8%,1%,7%,.
COCCN(C(=O)c1csnn1)C(C(=O)NC1CCCC1)c1ccc(C)cc1 (stereo not drawn),0%,8%[46.1 µM],0%,.,.,32%,-5%,8%[46.1 µM]
CCCCNC(=O)C(C#N)c1nc2ccccc2nc1N1CCCC1 (stereo not drawn),5%,-1%,.,-14%,-4.4%,.,1%,.
COc1cccc(CNC(=O)Cn2nc(N3CCN(c4ccccc4OC)CC3)ccc2=O)c1,.,.,.,?,0.8%,0%,.,3%[46.1 µM]
COc1ccc(N2C(=O)c3ccccc3NC2c2ccc(OC)c(COc3ccccn3)c2)cc1 (stereo not drawn),9%,-18%&-18%,5%,2%,-1.7%,13%,3%,?
COc1ccc(NC(=O)C2CCN(c3ccc(Sc4ccc(C)cc4)nn3)CC2)cc1,.,0%[46.1 µM],.,1%,-1.5%,11%,.,10%[46.1 µM]
Cc1cccc(C)c1-n1nnnc1SCSc1nnnn1-c1c(C)cccc1C,-2%,0%&11%,7%,0%,-5.6%,-5%,-12%,2%
COc1cccc(NC(=O)Nc2c(C)n(C)n(-c3ccccc3)c2=O)c1,6%,15%,-2%,3%,8.1%,7%,?,2%
Cc1ccc(CC(=O)Nc2nnc(-c3ccc(F)cc3)o2)c(C)c1,0%,.,12%,.,.,8%,-4%,.
O=C(NCc1cccs1)C1CCN(S(=O)(=O)c2cccc3cccnc23)CC1,-4%,.,-7%,-10%,5.4%,-13%,-8%,.
CCN(C(=O)CCNC(=O)Cn1cnc2ccccc2c1=O)c1cc(OC)ccc1OC,.,.,.,-4%,-1.0%,-13%,.,-17%[46.1 µM]
O=C(CCN1CCOCC1)NC12CC3CC(CC(C3)C1)C2,0%,.,-6%,.,.,9%,5%,.
CCOC(=O)c1[nH]c(C)c(C(=O)NCc2ccco2)c1C,-9%,.,4%,.,.,-15%,3%,.
COCCCNC(=O)CSc1nc2cc(C(=O)NCCOC)ccc2c(=O)n1Cc1ccc2c(c1)OCO2,-2%,.,-21%,.,.,8%,-8%,.
Cc1ccc(NS(=O)(=O)c2ccc(OCC(N)=O)cc2)cc1,0%,-16%[46.1 µM],-5%,.,.,18%,-2%,15%[46.1 µM]
O=C(Cn1cnc2c(nnn2Cc2ccc(Cl)cc2)c1=O)NC1CCCC1,5%,18%,6%,-5%,2.9%,17%,11%,0%
CCCC(=O)Nc1ccc2c(c1)c1ccccc1n2CC,2%,?,19%,5%,-7.2%,-16%,0%,?
Cn1c(-c2ccc(Br)o2)nc2ccccc21,-6%,?,?,-1%,-6.4%,0%,-80%,?
CCOC(=O)C1=C(C)N(CCCCCC(=O)O)C(=O)NC1c1ccccc1OC(=O)c1cccs1 (stereo not drawn),-5%,6%,4%,23%,-3.1%,-11%,23%,3%
O=C1C2CCCN2C(=S)N1c1ccccc1 (stereo not drawn),1%,-1%,2%,.,.,14%,2%,14%
CC(NC(=O)c1ccc(N2Cc3ccccc3Oc3ncccc32)s1)c1ccccc1 (stereo not drawn),.,.,.,-29%,-9.9%,0%,.,-13%[46.1 µM]
COc1ccccc1C(=O)CN1C(=O)NC2(CCCc3ccccc32)C1=O (stereo not drawn),1%,-2%[46.1 µM],4%,.,.,4%,.,30%[46.1 µM]
O=C(NC(=S)Nc1ccccc1)C1CCCCC1,2%,.,-8%,.,.,40%[activator],6%,.
CNC(=O)Cn1c(=O)n(C)c2ccccc21,2%,1%,1%,-2%,4.8%,9%,2%,-5%
COc1ccc2nc(N(Cc3cccnc3)C(=O)CCc3ccccc3)sc2c1,.,.,.,26%,-2.7%,22%,.,-25%[46.1 µM]
Cc1c(C)n(CC(O)CN2CCCCC2)c2ccccc12 (stereo not drawn),2%,?,-5%,-7%,1.4%,-3%,5%,-22%
